# Screens (PubChem BioAssay)
# MT1-MMP act inh: blockers of MT1-MMP proenzyme processing, primary screen, HT1080 RFP-PRO-GFP cells, GFP/RFP fluorescence | Matrix metalloproteinase-14 (Homo sapiens), P50281 | GFP/RFP ratio fluorescence, overnight; percent of plate control window, DMSO zero | GFP/RFP ratio change, % at 20 µM | hit rate 0.061% among 360,000 | AID 651647, 2012;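 active means GFP/RFP ratio change of at least 30% with cell ATP level not reduced by more than half and red fluorescence within 50% of control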; further: strong numbers were not always called active
#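 Assay system – RFP-PRO-GFP reporter HT1080 cells · Compound dosing – single dose of 20 µM compound, 1% DMSO final · Incubation – overnight compound exposure at 37 °C · Measure – GFP/RFP fluorescence ratio · Benchmarks – DMSO wells and RFP-L50D-GFP cells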
# Env fusion inh: inhibitors of HIV-1 Env-driven cell-cell fusion, primary screen, HeLa-JRFL effector, CEM21 target cells, luciferase; inhibition, % at 12.3 µM; hit rate 1.1% among 360,000; AID 651610, 2012;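 active means mean replicate inhibition score of at least 50 and every replicate individually at or above 50; inconclusive means only one of the two criteria met; inactive means mean below 50 and not all replicates reaching 50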;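 further: 0% = plate neutral controls and 100% = maraviroc near 300 nM; one replicate is shown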
# UUG fidelity: modulators of yeast start codon fidelity, primary screen, whole organism, S. cerevisiae, single point, plate reader; S. cerevisiae UUG-firefly luciferase reporter, luminescence/redox ratio; hit rate 0.13% among 350,000; AID 602363, 2012; activity score, % at 18.7 µM;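 active means replicate mean at a twofold rise or more, about +100% in these data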;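 further: firefly luciferase made from a UUG start codon reports start codon fidelity; reporter light over untreated wells divided by growth signal over untreated wells; some hits fall short of that in this replicate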
# Rce1 inh: yeast Rce1p protease inhibitors, primary screen, biochemical, fluorescence, cell-free homogeneous | yeast membranes, quenched prenylated peptide cleavage fluorescence | AID 2563, 2010 | hit rate 0.27% among 290,000 | calls only | CAAX prenyl protease 2 (Saccharomyces cerevisiae (strain ATCC 204508 / S288c)), Q03530;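 active means fall in fluorescence gain of 50% or more versus controls, with final raw signal at or below 3038400; inconclusive means same 50% fall but final raw signal above 3038400; inactive means fall in fluorescence gain under 50%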;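 further: plate controls were neutral control wells for no effect and wells lacking membranes for full effect; tested at 10 µM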
# Target sequence (Q03530 whole entry, looked up): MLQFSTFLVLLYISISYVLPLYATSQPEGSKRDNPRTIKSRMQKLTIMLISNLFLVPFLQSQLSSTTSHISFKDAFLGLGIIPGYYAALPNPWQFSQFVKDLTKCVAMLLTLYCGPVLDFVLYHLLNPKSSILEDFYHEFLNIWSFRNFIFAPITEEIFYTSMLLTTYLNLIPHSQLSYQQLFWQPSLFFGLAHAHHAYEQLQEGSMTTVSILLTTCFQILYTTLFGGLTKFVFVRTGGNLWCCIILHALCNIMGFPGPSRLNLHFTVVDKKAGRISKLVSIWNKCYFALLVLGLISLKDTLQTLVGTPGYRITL
# CSC inhib: cancer stem cell viability inhibitors, primary screen, luminescence; hit rate 1.1% among 300,000; cancer stem cell-like cells viability; inhibition, % at 7.5 µM;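 active means mean at 75% or more and at least half the replicates too; inconclusive means mean and replicates disagree; tested in HMLE shEcad cells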;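 further: 0% = median of negative and 100% = median of positive control wells; the first replicate is given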
# eIF4H FP inh: human eIF4H binding inhibitors, primary screen, translation initiation inhibitor project, biochemical, uHTS, fluorescence polarization; eIF4H fluorescence polarization binding assay; inhibition, % at 35 µM; hit rate 0.94% among 290,000;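 active means 50% or more with normal probe brightness, or confirmed in later tests; inconclusive means above 50% with abnormal brightness, or retests that disagree; inactive means below 50% or failed in later tests; about a fifth of its hits are not listed in these tables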;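 further: calls also rest on retests at 20 µM and on dose response follow-up; 0% = protein and probe with vehicle and 100% = probe without protein; strong numbers were not always called active; many hits fall short of the cut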
# PABP FP inh: PABP poly(A) RNA binding inhibitors, primary screen, biochemical, fluorescence polarization, uHTS; inhibition, % at 35 µM; hit rate 1% among 290,000; AID 2014, 2009;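 active means 50% or more with normal probe brightness, or confirmed in later tests; inconclusive means above 50% with abnormal brightness, or retests that disagree; inactive means below 50% or failed in later tests; about a fifth of its hits are not listed in these tables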;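 further: calls also rest on retests at 20 µM and on dose response follow-up; controls were probe without protein and protein plus probe with vehicle; some compounds called inactive have numbers as strong as hits; many hits fall short of the cut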
# Target sequence (P11940 whole entry, looked up): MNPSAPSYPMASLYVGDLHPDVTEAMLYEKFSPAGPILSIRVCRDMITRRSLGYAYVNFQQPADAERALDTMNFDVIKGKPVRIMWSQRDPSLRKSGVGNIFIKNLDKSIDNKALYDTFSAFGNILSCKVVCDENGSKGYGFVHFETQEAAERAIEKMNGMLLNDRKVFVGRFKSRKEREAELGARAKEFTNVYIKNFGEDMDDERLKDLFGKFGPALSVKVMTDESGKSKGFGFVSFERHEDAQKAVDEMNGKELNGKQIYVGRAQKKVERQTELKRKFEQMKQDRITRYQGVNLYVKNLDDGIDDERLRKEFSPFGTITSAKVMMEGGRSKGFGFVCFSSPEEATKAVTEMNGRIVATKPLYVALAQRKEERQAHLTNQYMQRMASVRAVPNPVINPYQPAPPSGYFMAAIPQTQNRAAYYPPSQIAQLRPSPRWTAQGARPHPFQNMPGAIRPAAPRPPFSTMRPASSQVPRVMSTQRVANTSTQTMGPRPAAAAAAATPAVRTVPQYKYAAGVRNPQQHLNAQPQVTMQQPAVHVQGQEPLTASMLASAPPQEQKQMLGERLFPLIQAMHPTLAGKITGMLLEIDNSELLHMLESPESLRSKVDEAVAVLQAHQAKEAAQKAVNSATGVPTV
# eIF4H FP inh retest: further read-out of eIF4H FP inh, marked with its call; inhibition, %; compound at 20 µM; confirmation average;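 mean of two retest wells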
# PABP FP inh retest: recorded beside PABP FP inh, whose call it bears; inhibition, %; compound at 20 µM; confirmation repeats;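 mean of two retest wells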
# MT1-MMP act inh RFP: recorded beside MT1-MMP act inh, whose call it bears; RFP signal change, %; measured here: RFP expression control read;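 0 = vehicle wells; hits needed this value within 50% of zero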
# Numbers without * were called inactive; i = inactive; ? = inconclusive; . = no result given.
SMILES,MT1-MMP act inh,MT1-MMP act inh RFP,Env fusion inh,UUG fidelity,Rce1 inh,CSC inhib,eIF4H FP inh,PABP FP inh,others
Cc1nc2c(C(=O)NCc3cccs3)cnn2c(C)c1Cc1ccccc1,.,.,.,.,i,0,-4,8,
COC(=O)COc1ccc(S(=O)(=O)NCCC2=CCCCC2)cc1C,2,0,.,.,i,10,4,-1,
Cn1c(SCC(=O)NC2CCCCC2)nnc1-c1ccccc1F,0,2,-8,-6,i,-12,8,1,
CCc1ccc(N(C(=O)c2csnn2)C(C(=O)NC(C)(C)CC)c2ccccn2)cc1 (stereo unspecified),-1,0,49,.,i,-19,7,-5,
COc1ccc(CN(C)C(=O)C2CC(=O)N(c3ccc4c(c3)OCCO4)C2)c(OC)c1 (stereo unspecified),-2,-4,.,-9,.,4,.,.,
COc1ccccc1C(=O)N/C(=C/c1ccc(Br)cc1)C(=O)NCCO,13,-2,8,-9,.,1,-14,7,
CCCn1c(CCc2ccccc2)n[nH]c1=S,-1,3,15,.,i,-13,11,-5,
CC(=O)NCCc1nc2ccccc2n1Cc1cc(C)ccc1C,0,-1,-9,4,i,5,-6,-2,
COc1ccccc1CC(=O)N1CCCC(CCC(=O)NCc2ccccc2F)C1 (stereo unspecified),2,-2,-1,5,i,-3,-15,-1,
COC(C/C=C/[C@H](O)COCc1ccccc1)OC,0,0,-14,3,i,.,3,-9,
Cc1ccccc1Cn1cc(CCC(=O)N2CCOCC2)c2ccccc21,1,3,9,0,i,-17,11,10,
Cc1ccccc1NC(=O)Cc1cccs1,0,2,11,-21,i,-6,1,13,
COC(=O)CCC(=O)Nc1ccc(Cl)c(Cl)c1,1,2,.,.,i,1,-7,1,
COc1ccc(-c2csc(NC(=O)CS(=O)(=O)c3ccccc3)n2)cc1OC,6,-5,-9,-10,.,.,.,.,
CCn1ncc(/C=C/C(=O)Nc2c(C)nn(Cc3ccc(Cl)cc3Cl)c2C)c1C,14,-10,18,-14,i,.,-4,3,
COc1ccc(N=C(C)C2=C(O)COC2=O)cc1,-3,0,.,-13,i,5,1,17,
CCCc1cc(=O)oc2cc(OCC(=O)NC3CC(C)(C)NC(C)(C)C3)ccc12,2,5,4,-38,i,17,23,4,
COc1cccc(NC(=O)CN2CCCCCC2)c1,0,-1,-5,-19,i,.,12,2,
Cc1ccc(NC(=O)/C(=C\c2ccccc2)NC(=O)c2ccco2)cc1,0,3,2,.,i,7,4,4,
CCC1=NN(C(=O)c2cccc(Br)c2)C(O)(c2ccc(Br)cc2)C1 (stereo unspecified),-6,-21,?,.,i,105*,-6,11,
O=C(CNC(=O)c1ccccn1)N/N=C/c1ccc2c(c1)OCO2,1,6,10,.,i,13,-8,-4,
O=C(C1=NN[C@@H]2C(=O)N(c3cccc(C(F)(F)F)c3)C(=O)[C@H]12)c1ccc2ccccc2n1,2,4,17,.,i,2,-1,-4,
O=C(NCCc1ccccc1)C(NS(=O)(=O)c1cccc2nsnc12)c1ccccc1 (stereo unspecified),-13,-7,34,.,i,-11,4,-7,
CCOC(=O)N1CCN(C(=O)/C(=C/c2ccc(Cl)cc2)NC(=O)c2ccccc2)CC1,10,-6,-9,-5,i,-4,-7,0,
COc1ccc(C2SCCN2C(=S)Nc2cccc(C(F)(F)F)c2)cc1 (stereo unspecified),-2,0,4,-13,i,-10,-10,-8,

# (cont.)
SMILES,MT1-MMP act inh,MT1-MMP act inh RFP,Env fusion inh,UUG fidelity,Rce1 inh,CSC inhib,eIF4H FP inh,PABP FP inh,others
CCOC(=O)NC1(NC2CCCCC2)Oc2ccccc2O1,-11,-6,.,-3,i,26,-3,-5,
COc1ccc(-c2csc(C3=C(O)CN(Cc4ccc(Cl)cc4)C3=N)n2)cc1OC,9,1,.,-5,i,11,5,-13,
Cc1nc(SCC(=O)c2ccc(Cl)s2)c2oc3ccccc3c2n1,-8,-6,-46,-13,i,14,1,-15,
CN1CCN(Cc2cccc3ncccc23)CC1CCO (stereo unspecified),-2,4,-25,3,i,.,32,7,
C=CCN1CN=C(NS(=O)(=O)c2ccc(NC(C)=O)cc2)NC1,-6,1,19,.,?,0,-4,16,
Cc1nnc(-c2cccc(Br)c2)c2cn(-c3ccccc3)nc12,-37,12,-36,-11,i,-2,5,6,
O=C1/C(=C/c2cccc(Cl)c2)CSc2sccc21,2,1,15,.,i,-4,0,2,
C#CCOCCOCCOCCNc1nc(N2CCN(C(=O)CCCCCCCCCCNC(=O)[C@@H](CCC(=O)O)n3cc(CCCCCN)nn3)CC2)nc(N2CCN(C(=O)CCCCCCCCCCNC(=O)[C@H](CO)n3cc(CCCCCN)nn3)CC2)n1,5,9,.,-6,.,-14,.,.,
CC1CCN(C2=NC(=O)/C(=C/c3ccc(O)cc3)S2)CC1,-1,-3,-9,-7,i,-6,-16,-5,
CCC1=C(OC(=O)c2ccccc2)C(C)(C)C(c2ccccc2)OC1=O (stereo unspecified),1,-3,.,105*,i,-2,-7,-4,
Cc1ccc(S(=O)(=O)N2CCC3(CC2)CC(=O)c2ccccc2O3)cc1,-1,1,-4,-7,i,-9,.,.,
CCN(CC)C(=O)Cn1cc(SCC(=O)NCc2ccco2)c2ccccc21,-1,0,0,.,i,2,14,6,
CC1(C(=O)NS(=O)(=O)c2ccccc2Cl)CCN1C(=O)Cc1ccc(Cl)cc1Cl (stereo unspecified),3,2,0,12,.,.,.,.,
CCC(CC)C(=O)N(C)c1c(C)nc2c(OCc3ccc(Cl)cc3)cccn12,-5,-10,7,-16,.,.,.,.,
COC(C(=O)N/N=C/c1ccc(OCC(=O)N2CCOCC2)cc1)c1ccccc1 (stereo unspecified),1,1,-9,-4,i,.,0,2,
CCOc1ccc(OCC)c(NC(=O)C2CCN(S(=O)(=O)c3cccnc3)CC2)c1,7,4,-53,.,i,-2,-8,0,
O=C(N/N=C/c1ccccn1)c1cccs1,5,1,-1,.,i,8,1,-12,
C/C=C/C(=O)Nc1nnc(C(C)C)s1,0,-1,.,-14,i,-16,21,1,
N/C(=N\OC(=O)c1cccc(Br)c1)c1ccc([N+](=O)[O-])cc1,3,0,-3,-13,i,-15,4,4,
O=C(N/N=C/c1cc([N+](=O)[O-])ccc1O)C1CC1,3,-1,1,-10,i,2,18,0,
Cn1c(CNC(=O)C2CCCCC2)cc2cc(Cl)ccc21,0,-4,4,3,i,-10,7,-2,
O=C(O)c1c(F)c(F)c(F)c(F)c1-c1ccc(Cl)cc1,-6,-2,.,6,.,2,-12,20,
Cc1ccc(CNC(=O)[C@H](C)NC(=O)C2CCN(C(=O)[C@@H](N)CC(C)C)CC2)cc1,4,10,.,0,i,-7,-9,4,
O=C(CSC1=NCCS1)Nc1cccc(F)c1,-4,-1,9,-1,i,-13,2,-8,
O=C(OCC(=O)N1CCCc2ccccc21)C1CCN(S(=O)(=O)c2cccs2)CC1,1,6,.,5,.,-12,-6,-5,

# Overlap with the part before: 4 entries, followed by the next part.
SMILES,MT1-MMP act inh,MT1-MMP act inh RFP,Env fusion inh,UUG fidelity,Rce1 inh,CSC inhib,eIF4H FP inh,PABP FP inh,others
O=C(O)c1c(F)c(F)c(F)c(F)c1-c1ccc(Cl)cc1,-6,-2,.,6,.,2,-12,20,
Cc1ccc(CNC(=O)[C@H](C)NC(=O)C2CCN(C(=O)[C@@H](N)CC(C)C)CC2)cc1,4,10,.,0,i,-7,-9,4,
O=C(CSC1=NCCS1)Nc1cccc(F)c1,-4,-1,9,-1,i,-13,2,-8,
O=C(OCC(=O)N1CCCc2ccccc21)C1CCN(S(=O)(=O)c2cccs2)CC1,1,6,.,5,.,-12,-6,-5,
O=S(=O)(c1ccc(N2CC=C(c3ccccc3)CC2)nc1)N1CCCC1,-3,-1,-21,-11,i,0,4,-5,
CC(C)CN(C(=O)c1cc(Cl)nc2ccccc12)C1CCS(=O)(=O)C1 (stereo unspecified),-1,-1,0,-11,.,.,.,.,
Cc1nc2ccc(Cl)cc2c(-c2ccccc2Cl)c1CC(=O)O,21,-7,-22,3,i,-1,-11,6,
O=Nc1ccc(NOC(=O)c2ccccc2)cc1,3,3,-24,-42,i,-11,8,-2,
COc1cccc(-c2cc(C(=O)Nc3cc(C)nn3-c3ccccc3)no2)c1,0,-3,-20,.,i,-5,-2,12,
COc1ccc(CCNC(=O)C(CC(C)C)NC(N)=O)cc1 (stereo unspecified),-3,-1,5,-1,i,-9,2,4,
COc1cccc(C2=CC(c3ccccc3)n3ncnc3N2)c1 (stereo unspecified),.,.,.,.,i,9,0,-2,
O=C(Cn1[nH]c(=O)c2ccccc2c1=O)Nc1cccc(S(=O)(=O)N2CCCCCC2)c1,1,-8,7,.,i,.,-6,5,
O=C(N/N=C/c1cccc2ccccc12)c1cccc(F)c1,-2,-4,-80,-2,i,4,7,2,
Cc1ccc(C(=O)OCC(=O)NNC(=O)c2ccccc2)c(O)c1,-5,1,-3,-8,i,-18,-7,2,
COc1ccc(C(=O)N2CCCN(C)CC2)cc1S(=O)(=O)N1CCCc2ccccc21,-4,1,-26,-24,i,-8,-10,-1,
Cc1sc2nc(SCC(=O)C(C)(C)C)n(Cc3ccco3)c(=O)c2c1C,-6,-12,-52,-15,i,63,1,2,
COc1ccc(CN2CCC(=O)N(CCO)CC2)cc1OC,1,1,-1,-12,i,-9,1,1,
Cn1c(Cn2c(=O)sc3ccccc32)nnc1SCC(=O)NCc1ccc2c(c1)OCO2,1,3,-13,-9,i,-17,-2,-15,
Cc1c(NC(=O)C(C)Sc2nc(N)cc(=O)[nH]2)c(=O)n(-c2ccccc2)n1C (stereo unspecified),0,0,.,-6,.,-17,.,.,
CC(C)c1nc2cc(C(=O)NC(C)c3cnn(C)c3)ccc2o1 (stereo unspecified),-6,-1,13,-22,i,-5,-15,-9,
C=CCNc1nnc(Cc2ccc(F)cc2)c(=O)[nH]1,5,6,11,-21,i,-9,.,.,
CS(=O)(=O)N(Cc1ccc(C(=O)NCCSCc2ccco2)cc1)c1ccccc1,-2,0,-33,-13,i,17,0,6,
C=CCNC(=S)/N=c1/ccccn1C,4,3,-7,.,i,-6,-10,-6,
O=C(c1cnc(N2CCN(c3ncccn3)CC2)c2ccccc12)N1CCN(c2ccccn2)CC1,6,-10,-96,-1,i,2,-4,0,
CS(=O)(=O)Cc1ccc(C(=O)NC2CCSc3ccccc32)cc1 (stereo unspecified),1,3,3,3,.,-14,0,-5,
CO/N=C/CC(=O)c1ccc([N+](=O)[O-])c(CS(=O)(=O)c2ccc(Cl)cc2)c1,4,5,-3,-16,i,-18,-3,-2,
c1ccc(C2COC(c3cccs3)=N2)cc1 (stereo unspecified),-4,0,-39,-15,i,-10,-5,-6,
COc1ccc2cc3cc(C(=O)NCCCN4CCC(C)CC4)oc3nc2c1,4,0,.,-1,i,5,-4,1,
O=C(O)/C=C/C(=O)NNC(=O)c1cc(-c2ccccc2)n[nH]1,2,4,16,.,i,-2,55,-4,eIF4H FP inh retest=-6;PABP FP inh retest=10
CCOc1ccc(-n2c(=O)c3sccc3n(CC(=O)NCC3CCCO3)c2=O)cc1 (stereo unspecified),-1,-1,-6,-5,i,.,9,10,
